Compound activity from PubChem BioAssay.
D2 agonist = human D2 receptor agonism in beta-arrestin assay | AID 624465 | DiscoveRx PathHunter D2 beta-arrestin, luminescence, 90 min; 100% = 57 uM dopamine signal | P14416 | activation, % (concentration not given with the values) | actives 0.084% (n = 360,000); in the data active = activation above about 40%; inconclusive = about 15% to 40%; inactive = below about 15%; also: compound concentration not given in the record; the text of the record calls up to 30% inactive
Target sequence (P14416 whole entry, looked up): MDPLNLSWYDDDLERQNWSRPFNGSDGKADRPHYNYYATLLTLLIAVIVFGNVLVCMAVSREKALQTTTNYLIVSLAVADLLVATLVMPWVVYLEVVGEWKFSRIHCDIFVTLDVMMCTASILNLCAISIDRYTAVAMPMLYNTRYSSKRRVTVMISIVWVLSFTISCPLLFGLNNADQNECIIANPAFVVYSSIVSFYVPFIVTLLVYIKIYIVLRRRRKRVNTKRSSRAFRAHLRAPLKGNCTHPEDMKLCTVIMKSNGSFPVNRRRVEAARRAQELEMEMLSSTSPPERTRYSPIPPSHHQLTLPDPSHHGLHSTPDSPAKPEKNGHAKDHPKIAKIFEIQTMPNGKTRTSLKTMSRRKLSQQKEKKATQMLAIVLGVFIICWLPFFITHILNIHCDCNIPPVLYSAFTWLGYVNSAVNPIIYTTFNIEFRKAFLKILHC
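DiscoveRx PathHunter D2 beta-arrestin cells (2,100/well) attached overnight, then compound-stimulated 90 min at 37 C in HBSS/10 mM HEPES/0.1% Tween-20 buffer; beta-galactosidase complementation read by luminescence after 1 h at ambient temperature. Dopamine 57 uM final (EC100) as control.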
TRPML1 agonist = agonists of human TRPML1 channel. AID 624414. activation, % (test concentration not listed). Q9GZU1. TRPML1-expressing cells, Ca2+ dye fluorescence, FDSS; host cell line not named in the record; reference of the full effect not given here. actives 0.12% (n = 410,000); in the data active = activation above about 50%; inconclusive = about 30% to 50%; inactive = below about 30%; also: 0% is about no effect; the text of the record puts the active cut at 80%
Target sequence (Q9GZU1 whole entry, looked up): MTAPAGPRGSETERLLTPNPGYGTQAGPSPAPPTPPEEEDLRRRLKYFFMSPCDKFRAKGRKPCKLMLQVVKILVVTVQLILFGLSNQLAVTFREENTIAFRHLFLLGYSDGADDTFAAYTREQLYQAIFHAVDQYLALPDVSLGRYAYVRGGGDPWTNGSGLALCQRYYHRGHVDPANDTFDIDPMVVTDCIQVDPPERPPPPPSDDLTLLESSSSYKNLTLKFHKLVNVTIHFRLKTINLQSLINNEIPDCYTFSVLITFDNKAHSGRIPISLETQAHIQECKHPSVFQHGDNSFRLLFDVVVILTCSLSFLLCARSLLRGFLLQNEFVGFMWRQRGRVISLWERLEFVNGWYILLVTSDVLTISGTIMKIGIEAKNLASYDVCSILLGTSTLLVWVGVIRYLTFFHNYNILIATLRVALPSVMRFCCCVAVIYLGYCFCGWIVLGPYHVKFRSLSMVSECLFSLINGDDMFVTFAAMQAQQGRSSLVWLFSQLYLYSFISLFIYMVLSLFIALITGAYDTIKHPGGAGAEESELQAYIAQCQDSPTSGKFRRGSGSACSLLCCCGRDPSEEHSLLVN
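Tetracycline-induced TRPML1-DL cells are seeded and incubated overnight before loading with a no-wash Ca2+ dye and quencher. Agonist activity is taken from the 110 s fluorescence read following compound pin-transfer on an FDSS, before EC80 54-4 challenge.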
Six1-Eya2 blk = inhibitors of human Six1/Eya2 interaction; Q15475+O00167; AlphaScreen GST-Six1/His-Eya2 binding, biochemical; stronger effect = lower value; control for the full effect not named in the record; activity change, % (no concentration beside the values); actives 0.56% (n = 360,000); in the data active = activity change below about -65%; inconclusive = about -30% to -65%; inactive = above about -30%; also: % is scaled to controls: 0 for no effect and ±100 for the full control effect; compound concentration not given in the record
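Compounds are tested against tagged Six1 and Eya2 proteins bridged by glutathione donor and nickel acceptor beads; after a one-hour incubation at 37 °C without light, AlphaScreen emission is recorded.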
D2 potentiator = positive allosteric modulators of human D2 dopamine receptor | P14416 | DiscoveRx D2 beta-arrestin cells, luminescence, 90 min; 100% = 57 uM dopamine signal | potentiation, % (no concentration beside the values) | actives 0.23% (n = 360,000) | AID 624464; active = potentiation of 50% or more; inconclusive = 30% to 50%; inactive = 30% or less;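 also: compound concentration not given in the record; tested on top of an EC20 dose of dopamine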
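PathHunter D2 cells, attached overnight at 37 deg C, received compound in DMSO plus dopamine at EC20 (50 nM final) for 90 min at 37 deg C. Beta-arrestin recruitment was read as luminescence after 1 h with detection reagent at ambient temperature.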
PINK1 expr mod = changes PINK1 expression; PINK1 immunofluorescence, high-content cytometry, 24 h; actives 0.2% (n = 410,000); AID 624263; Potency, µM (top dose mostly 76.6 µM), for inactives: top-dose activation (PINK1 increase), hits mostly activators; active = well fitted activation curve with a large enough effect; inconclusive = small, poorly fitted or top-dose-only effect; inactive = flat fitted curve, though single readings scatter; cell line not stated here;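 also: potency is read from the fitted curve at half-maximal effect; % of control where 0% means no effect; nearly all actives have a fitted effect of over 65% in size; a mitochondrial uncoupler was the plate control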
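A stable cell line was treated with compounds at 5 concentrations for 24 hours, with CCCP as control. PINK1 levels and mitochondrial localization were measured by immunofluorescence with mitochondrial, cell and nuclear markers after fixation, read by laser-scanning cytometry.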
TRPML1 inh = human mucolipin-1 channel inhibition; Q9GZU1; TRPML1-inducible cells, Ca2+ dye fluorescence, FDSS; stronger effect = lower value; inhibition of EC80 agonist-evoked calcium signal; activity change, negative = inhibition, % (test concentration not listed); actives 0.02% (n = 390,000); in the data active means activity change below about -50%; inconclusive means about -30% to -50%; inactive means above about -30%;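 also: stimulus is agonist 54-4 at its EC80 concentration; % is scaled to controls: 0 for no effect and ±100 for the full control effect; compound concentration not given in the record; the text of the record puts the active cut at -80%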
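Calcium fluorescence in TRPML1-DL cells induced overnight with Tet: a 110 s read after compound pin addition, then a 110 s antagonist read after challenge with 54-4 at 4 uM final (EC80).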
* hit, by the source's call; ? = inconclusive; . = no result given; [ ] = dose if it differs, or a comment.

Every second line gives: D2 agonist | TRPML1 agonist | Six1-Eya2 blk | D2 potentiator | PINK1 expr mod | TRPML1 inh
1: C/C(=N\OCC(=O)Nc1c(C)cc(C)cc1C)c1ccc2c(c1)OCCO2
→ -0.7 | 2.6 | -1 | -13 | 2.0% | 14
2: COc1ccc(C(C)=O)cc1CSc1nc2ccccc2c(=O)n1-c1ccccc1
→ -1.2 | 2.2 | -6 | -24 | 12% | 0
3: CC(C)(C)c1ccc(OCc2nnc(-c3ccccc3)o2)cc1
→ . | 3.1 | . | . | 8.0% | 6
4: CN(CC(=O)NC(c1ccccc1)c1ccccc1)Cc1nc2ccccc2c(=O)[nH]1
→ 3.1 | -0.2 | -13 | -14 | 0.2% | -14
5: CCCN1CCN(c2ncnc3sc(C(=O)Nc4cccc(Cl)c4C)c(C)c23)CC1
→ . | -0.8 | . | . | 0.9% | 5
6: Oc1c(Br)cc(C=Nc2ccc3nc(-c4ccccc4)[nH]c3c2)c(O)c1Br
→ 9.4 | -0.7 | ? | ? | -1.6% | 12
7: CCOC(=O)C1C(=O)CC(C)(O)C(C(=O)OCC)C1c1ccccc1OC (configuration not stated)
→ 1.1 | 0.7 | 2 | -10 | ? | 7
8: CCn1c(=S)sc2c(=O)n(CC(=O)Nc3cccc(OC)c3)c(C)nc21
→ -1.5 | 1.2 | 3 | -7 | -2.0% | 32
9: O=C1OC(N2C(=O)CC[C@H]2C(=O)Nc2ccc(Br)cc2F)c2ccccc21 (some centres not stated)
→ -4.1 | . | 2 | -10 | 0.1% | .
10: COc1ccc(-c2[nH]c(-c3cccc(OC)c3)nc2SCC(=O)Nc2ccc3c(c2)OCO3)cc1
→ . | 1.2 | . | . | 0.8% | -5
11: CC(NC(=O)COC(=O)/C=C/c1cccc(C(F)(F)F)c1)c1ccccc1 (configuration not stated)
→ 3.1 | 3.3 | 23 | -1 | 0.6% | -10
12: CC(C)c1ccc(/C=C2\C(=N)N3N=C(CC(=O)N4CCCCC4)SC3=NC2=O)cc1
→ -1.7 | -0.1 | -6 | -7 | 0.0% | 11
13: CC1=CC(=O)Nc2ccccc2S1
→ -6.2 | 7.3 | 5 | -21 | -1.8% | -14
14: COc1ccc(C2=Nc3ccccc3NC(=O)C2N(C(=O)c2ccnc3ccccc23)c2ccccc2)cc1 (configuration not stated)
→ -7.7 | -0.6 | 1 | -10 | -0.1% | .
15: CCc1cc2c(=O)oc(-c3ccccc3F)nc2s1
→ -2.5 | 1.1 | -7 | -2 | 3.4% | -19
16: COc1ccc(C2c3[nH]c4ccccc4c3CCN2C(=O)c2cn3ccccc3n2)c(F)c1 (configuration not stated)
→ -3.5 | -0.7 | -4 | -11 | 1.3% | 3
17: COc1ccc(Br)cc1CN(C)C(=O)c1ccncc1
→ -2.3 | -0.5 | 0 | -4 | -0.6% | 6
18: CNC(=O)COC(=O)c1ccccc1Nc1ccccc1
→ -3.1 | -1.0 | -7 | -24 | 0.6% | 11
19: Cc1ccsc1C(=O)OCC(=O)Nc1ccc(Cl)cc1C(F)(F)F
→ -3.8 | 3.0 | 7 | -2 | 2.1% | 6
20: O=C(NCc1ccccn1)c1ccc(NS(=O)(=O)c2cccc(Cl)c2)cc1
→ -0.8 | 0.3 | 16 | 1 | 1.2% | 5
21: COc1ccccc1-c1ccc(=O)n(CC(=O)NCc2ccc3c(c2)OCO3)n1
→ 3.5 | -0.8 | 1 | -14 | 2.8%[38.3 µM] | 0
22: Cc1ccc(OCCCn2c(CO)nc3ccccc32)cc1
→ 2.5 | 1.6 | 9 | -16 | 2.9% | 4
23: O=C(c1cccs1)N1CCCc2cc(NS(=O)(=O)c3cc(F)ccc3F)ccc21
→ . | 1.1 | . | . | -0.1% | -15
24: COc1ccccc1OCCNC(=O)CCNS(=O)(=O)c1ccc(C)cc1
→ -5.3 | -0.3 | -9 | -2 | 3.1% | -7
25: O=C(Nc1cccc(S(=O)(=O)NC2=NCCC2)c1)c1cc(-c2ccccn2)nc2ccccc12
→ 1.9 | -0.5 | -6 | -1 | 2.5% | 6
26: CC(=O)c1cccc(NC(=O)Cc2cccs2)c1
→ -1.3 | -0.3 | -2 | -12 | -5.1%[38.3 µM] | 7
27: COc1ccc(Nc2nc(-c3cc4cccc(OC)c4oc3=O)cs2)cc1
→ -1.9 | -0.2 | 4 | 6 | 14% | -3
28: CCCN1C(=O)C(O)(CC(=O)c2cccc(OC)c2)c2ccccc21 (configuration not stated)
→ -3.4 | -0.2 | 7 | -4 | 15% | 5
29: O=c1c2ccccc2nc(-c2ccc(Cl)cc2)n1CCCCOc1ccc(F)cc1
→ . | 0.2 | . | . | 0.5% | -11
30: COc1ccc(NC(=O)C(C)NS(=O)(=O)c2ccccc2)cc1Cl (configuration not stated)
→ 0.4 | -0.5 | 9 | 15 | -0.1% | -6
31: O=C(CN1C2=NCCN2c2ccccc21)c1ccc(Br)cc1
→ -3.1 | 1.4 | 3 | 1 | 2.4% | -8
32: Cc1cccc(NC(=O)CSc2nnc(CNC(=O)c3ccco3)o2)c1
→ 0.9 | -0.8 | 0 | -13 | 0.6% | 4
33: CON(C)c1nc(OCC#N)nc(N(C)C)n1
→ -0.1 | 0.8 | -3 | -11 | -0.1% | -15
34: CNC(=O)c1cnn(-c2nc(-c3ccc(OC)cc3)cs2)c1C(F)(F)F
→ 0.5 | 1.0 | 9 | -8 | 7.0% | 8
35: COc1ccc(NC(C)=O)cc1NC(C)C(=O)Nc1ccc(F)c(F)c1F (configuration not stated)
→ -4.7 | 0.2 | -1 | 5 | -0.4% | -11
36: CCOc1ccccc1N(CC(=O)N1CCC(C(N)=O)CC1)S(=O)(=O)c1ccc(SC)cc1
→ -6.4 | 0.1 | 8 | -19 | -1.6% | 3
37: CC(C)CC(=O)N1CCN(C(=O)c2ccco2)CC1
→ 0.0 | -0.5 | 1 | 3 | 2.3% | 12
38: COc1ccccc1CCNC(=O)C(=O)Nc1cc2c3c(c1)C(C)C(=O)N3CCC2 (configuration not stated)
→ ? | 1.7 | -9 | 15 | -1.0% | 3
39: Cc1ccc(S(=O)(=O)N2CCN(C(=O)c3cc4c(s3)CCC(C)C4)CC2)cc1 (configuration not stated)
→ -3.2 | 0.0 | 1 | -11 | 6.0% | -3
40: Cc1ccn(CC(=O)N2CCCC(C(=O)c3cccc4ccccc34)C2)n1 (configuration not stated)
→ -0.5 | -0.5 | -2 | -2 | 1.2% | 8
41: CC(Sc1nnc(N)s1)C(=O)Nc1ccc2c(c1)OCO2 (configuration not stated)
→ 2.0 | -0.3 | -10 | 17 | -3.5% | -3
42: O=C(CSc1nnc(-c2ccccc2)c(-c2ccccc2)n1)NC1CCS(=O)(=O)C1 (configuration not stated)
→ -1.2 | -0.3 | -6 | -1 | -1.5% | -18
43: COc1ccc(OCc2cc(C(=O)NCCCc3ccccc3)no2)c(Cl)c1
→ 0.3 | 3.5 | 10 | -3 | 3.1% | 2
44: COC(=O)CN1C(=O)N/C(=C/c2ccc(OC)cc2)C1=O
→ -2.8 | 0.9 | 0 | -18 | 0.9% | 1
45: COc1ccc(/C=C(\NC(=O)c2ccccc2)C(=O)N2CCN(C)CC2)cc1
→ -3.1 | -0.5 | 0 | -7 | 0.8% | 1
46: COc1ccc2oc(C(=O)c3ccccc3)c(NC(=O)CN3CCN(C)CC3)c2c1
→ -1.8 | 0.7 | -4 | -3 | 0.5% | 22
47: O=C(c1ccc2ccccc2c1)N1CCN(c2ccc(C(F)(F)F)cn2)CC1
→ 2.3 | -0.6 | -2 | -1 | -0.7% | -24
48: O=c1c2cc(-c3ccccc3)sc2nc2n1N=C(c1cccs1)CS2
→ -1.1 | 0.7 | 1 | -3 | 3.4% | 7
49: COc1cc(OC)c(NC(=O)CCn2cnc3onc(-c4ccc(F)cc4)c3c2=O)cc1Cl
→ . | 0.6 | . | . | 2.7% | -4
50: COc1ccc(CN2C(=O)C(C)Nc3ncnc(N4CCc5ccccc5C4)c32)cc1 (configuration not stated)
→ -3.5 | 1.5 | 10 | -3 | 1.9% | 13
51: Cc1cc(NC(=O)CSc2nnc(-c3ccoc3C)n2N)no1
→ 0.5 | -0.4 | 0 | 1 | -2.3% | -15
52: COc1ccc(C2=NOC(C(=O)NCCCN3CCOCC3)C2)cc1 (configuration not stated)
→ -0.5 | 0.0 | 2 | -1 | -4.3%[38.3 µM] | 3
53: Cc1onc(-c2ccccc2Cl)c1C(=O)Oc1ccc(Cl)cc1Cl
→ . | -0.2 | . | . | 0.2% | 11
54: CC(=O)c1ccc(NC(=O)CNc2cc(S(=O)(=O)N3CCOCC3)ccc2N2CCCC2)cc1
→ -1.8 | -0.6 | -3 | -18 | 0.3% | 12
55: Cc1cc(C)c(NC(=O)CSc2nccn2-c2cccc(Cl)c2)c(C)c1
→ . | 0.6 | . | . | -0.6% | -6
56: CCNc1nc(NCc2ccccc2)nc(Oc2ccc(=O)[nH]n2)n1
→ -4.3 | 0.2 | -1 | 4 | 0.8% | -8
57: COc1ccc(Cl)cc1NC(=O)CN(C)C(=O)c1cccc(S(=O)(=O)N2CCN(C)CC2)c1
→ -0.2 | 1.3 | 5 | -18 | 0.8% | -4
58: O=C1N(c2ccccc2C(F)(F)F)OC1(Cc1ccccc1)c1ccccc1 (configuration not stated)
→ 1.7 | -1.3 | 9 | -4 | -1.3% | 8
59: O=C(COC(=O)CCCNC(=O)c1ccc(Cl)cc1)Nc1ccc(Br)cc1
→ -2.7 | 0.2 | 4 | -8 | 1.1% | -3
60: Cc1nn(-c2ccccc2)c(N)c1N=Nc1ccc2ccccc2c1
→ 1.2 | -0.6 | ? | -7 | 4.9% | 18

Fetched by structure from the list above (4):
Every second line gives: D2 agonist | TRPML1 agonist | Six1-Eya2 blk | D2 potentiator | PINK1 expr mod | TRPML1 inh
24: COc1ccccc1OCCNC(=O)CCNS(=O)(=O)c1ccc(C)cc1
→ -5.3 | -0.3 | -9 | -2 | 3.1% | -7
49: COc1cc(OC)c(NC(=O)CCn2cnc3onc(-c4ccc(F)cc4)c3c2=O)cc1Cl
→ . | 0.6 | . | . | 2.7% | -4
3: CC(C)(C)c1ccc(OCc2nnc(-c3ccccc3)o2)cc1
→ . | 3.1 | . | . | 8.0% | 6
38: COc1ccccc1CCNC(=O)C(=O)Nc1cc2c3c(c1)C(C)C(=O)N3CCC2 (configuration not stated)
→ ? | 1.7 | -9 | 15 | -1.0% | 3

New compounds follow.
Every second line gives: D2 agonist | TRPML1 agonist | Six1-Eya2 blk | D2 potentiator | PINK1 expr mod | TRPML1 inh
61: CN1C2C=C3C(C#N)=C(N)C(C#N)(C#N)[C@@H](c4cccs4)C3C1CC2 (some centres not stated)
→ 1.2 | 1.2 | -10 | 6 | 0.1% | 9
62: CN(C)c1cccc(C(=O)N2CCC(c3ccncc3)CC2)c1
→ . | -0.2 | . | . | 3.5% | 3
63: Cc1ccc(CNC(=O)C23CN(Cc4ccccc4)CC2C(c2ccc([N+](=O)[O-])cc2)=NO3)cc1 (configuration not stated)
→ 2.2 | 0.1 | -23 | -7 | 0.5% | -14
64: N/C(=N\OC(=O)c1ccc2ccccc2c1)c1ccccc1Cl
→ ? | -0.8 | 2 | ? | -1.6% | -5

Rows are unselected, and some 1% of all compounds hit somewhere here.
